From PubChem BioAssay
Env fusion inh: inhibitors of HIV Env-mediated cell fusion | inhibition, % at 12.3 µM | HeLa-JRFL Env/CEM21 cell fusion, luciferase | AID 651610 | hit rate 1.1% among 360,000;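 active = mean replicate inhibition score of at least 50 and every replicate individually at or above 50; inconclusive = only one of the two criteria met; inactive = mean below 50 and not all replicates reaching 50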;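 note: 0% = plate neutral controls and 100% = maraviroc near 300 nM; one replicate is shown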
UUG fidelity: modulators of start codon recognition fidelity in yeast; activity score, % at 18.7 µM; S. cerevisiae UUG-firefly luciferase reporter, luminescence/redox ratio; AID 602363; hit rate 0.13% among 350,000;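 active = replicate mean at a twofold rise or more, about +100% in these data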;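 note: firefly luciferase made from a UUG start codon reports start codon fidelity; reporter light over untreated wells divided by growth signal over untreated wells; some hits fall short of that in this replicate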
The depositor's hits bear a star; ? = inconclusive; [ ] = remark or other dose.

SMILES	Env fusion inh	UUG fidelity
O=C(C[C@@H]1C[C@@H]2c3cc(NC(=O)C4CCC4)ccc3O[C@@H]2[C@H](CO)O1)NCCN1CCCCC1	-8[16.7 µM]	-14
C[C@@H]1CN([C@H](C)CO)C(=O)c2cc(NC(=O)Cn3cnnn3)ccc2O[C@H]1CN(C)C(=O)Nc1ccccc1	-125[16.7 µM]	0
C[C@H](CO)N1C[C@H](C)[C@H](CN(C)C(=O)CCC(F)(F)F)OCCCC[C@H](C)Oc2ccc(NS(=O)(=O)c3ccc(F)cc3)cc2C1=O	-144[16.7 µM]	11
C[C@@H]1CN([C@@H](C)CO)C(=O)c2cc(NC(=O)Nc3ccc4c(c3)OCO4)ccc2O[C@@H]1CN(C)S(=O)(=O)c1ccccc1	10[16.7 µM]	-4
O=C(N[C@@H]1CC[C@@H](CC(=O)N2CCC(Cc3ccccc3)CC2)O[C@@H]1CO)c1cnccn1	-13[16.7 µM]	8
C[C@H]1CCCCO[C@H](CN(C)C)[C@@H](C)CN([C@@H](C)CO)C(=O)c2cc(NC(=O)NC3CCCCC3)ccc2O1	31[16.7 µM]	20
Cc1ccc(S(=O)(=O)Nc2ccc3c(c2)C(=O)N([C@H](C)CO)C[C@H](C)[C@@H](CN(C)C(=O)Nc2ccc4c(c2)OCO4)OCCCC[C@H](C)O3)cc1	-132[16.7 µM]	-10
COc1ccc(NC(=O)Nc2ccc3c(c2)CC(=O)N([C@@H](C)CO)C[C@H](C)[C@@H](CN(C)C(=O)Nc2ccc4c(c2)OCO4)O3)cc1	-5[16.7 µM]	-2
Cc1noc(C)c1NC(=O)Nc1ccc2c(c1)C(=O)N([C@@H](C)CO)C[C@@H](C)[C@H](CN(C)S(=O)(=O)c1cn(C)cn1)OCCCC[C@@H](C)O2	2[16.7 µM]	-2
C[C@H]1CN([C@@H](C)CO)C(=O)c2cc(C#Cc3cccc(F)c3)cnc2O[C@H]1CN(C)C(=O)C1CCOCC1	-10[16.7 µM]	-7
CCCc1cn(CC[C@H]2CC[C@H](NC(=O)C3CCOCC3)[C@H](CO)O2)nn1	22[16.7 µM]	-4
C[C@@H]1CCCCO[C@H](CN(C)Cc2ccncc2)[C@H](C)CN([C@H](C)CO)C(=O)c2cc(N(C)C)ccc2O1	11[16.7 µM]	-7
CN(C)CC(=O)N[C@H]1CC[C@H](CC(=O)NCCN2CCCCC2)O[C@H]1CO	9[16.7 µM]	-15
O=C(Nc1ccc(F)cc1)Nc1ccc2c(c1)[C@@H]1C[C@@H](CC(=O)N3CCOCC3)O[C@@H](CO)[C@@H]1O2	7[16.7 µM]	26
Cc1noc(C)c1NC(=O)N(C)C[C@@H]1OCCCC[C@@H](C)Oc2ccc(NC(=O)NC3CCCCC3)cc2C(=O)N([C@@H](C)CO)C[C@H]1C	-5[16.7 µM]	-20
Cc1ccc(S(=O)(=O)N(C)C[C@H]2Oc3cc(Br)ccc3S(=O)(=O)N([C@@H](C)CO)C[C@@H]2C)cc1	24[16.7 µM]	51
CN1C(=O)c2cc(NC(=O)NCc3ccccc3)ccc2OC[C@H]2O[C@H](CC(=O)O)CC[C@@H]21	-12[16.7 µM]	-12
C[C@H]1CN([C@@H](C)CO)C(=O)c2cccc(NC(=O)Nc3ccc(F)cc3)c2O[C@H]1CN(C)C(=O)Nc1ccccc1	1[16.7 µM]	10
CCC(=O)N(C)C[C@@H]1Oc2cc(C#Cc3ccccc3)ccc2S(=O)(=O)N([C@H](C)CO)C[C@@H]1C	38[16.7 µM]	0
C[C@@H]1CCCCO[C@H](CN(C)S(=O)(=O)c2cccs2)[C@H](C)CN([C@@H](C)CO)C(=O)c2cc(N(C)C)ccc2O1	-11[16.7 µM]	0

Record cards, from the list above.
Listed for `CCC(=O)N(C)C[C@@H]1Oc2cc(C#Cc3ccccc3)ccc2S(=O)(=O)N([C@H](C)CO)C[C@@H]1C` = Env fusion inh = 38[16.7 µM]; UUG fidelity = 0
Listed for `Cc1ccc(S(=O)(=O)N(C)C[C@H]2Oc3cc(Br)ccc3S(=O)(=O)N([C@@H](C)CO)C[C@@H]2C)cc1` = Env fusion inh = 24[16.7 µM]; UUG fidelity = 51

(listing goes on)
SMILES	Env fusion inh	UUG fidelity
COc1ccc(NC(=O)Nc2ccc3c(c2)C(=O)N([C@H](C)CO)C[C@@H](C)[C@H](CN(C)C(=O)Nc2ccc4c(c2)OCO4)O3)cc1	-27[16.7 µM]	4
CC(=O)N[C@@H]1CC[C@H](CCNC(=O)C2CC2)O[C@H]1CO	15[16.7 µM]	-12
C[C@@H]1CCCCO[C@H](CN(C)Cc2ccccc2)[C@H](C)CN([C@@H](C)CO)C(=O)c2cc(NC(=O)Nc3cccc4ccccc34)ccc2O1	-65[16.7 µM]	1
CCCN(C)C[C@@H]1OCCCC[C@@H](C)Oc2ccc(NC(=O)Nc3ccc(OC)cc3)cc2C(=O)N([C@H](C)CO)C[C@@H]1C	9[16.7 µM]	6
C[C@H]1CN([C@@H](C)CO)C(=O)c2cc(-c3cccc(F)c3)cnc2O[C@H]1CN(C)S(C)(=O)=O	-3[16.7 µM]	-10
Cc1ccc(S(=O)(=O)N(C)C[C@@H]2OCCCC[C@@H](C)Oc3ccc(NC(=O)Nc4ccc5c(c4)OCO5)cc3C(=O)N([C@H](C)CO)C[C@@H]2C)cc1	-12[16.7 µM]	-13
C[C@@H]1CN([C@H](C)CO)S(=O)(=O)c2ccc(C#CCC3CCCC3)cc2O[C@H]1CN(C)Cc1ccc(C(=O)O)cc1	-3[16.7 µM]	25
C[C@@H]1CN([C@H](C)CO)C(=O)c2cccc(N(C)C)c2O[C@@H]1CN(C)C	2[16.7 µM]	-5
C[C@@H]1CN([C@H](C)CO)S(=O)(=O)c2ccc(C#C[C@@H](C)O)cc2O[C@H]1CN(C)C(=O)C1CCC1	-5[16.7 µM]	9
O=C(Nc1ccc(F)cc1)N[C@@H]1CC[C@H](CCNS(=O)(=O)c2ccccc2F)O[C@H]1CO	?	-10
C[C@H]1CN([C@@H](C)CO)C(=O)Cc2cc(NC(=O)Cn3cnnn3)ccc2O[C@H]1CN(C)C(=O)Nc1ccccc1	-12[16.7 µM]	-2
C[C@@H]1CN([C@@H](C)CO)S(=O)(=O)c2ccc(C#CCC3CCCC3)cc2O[C@@H]1CN(C)C(=O)c1ccccn1	16[16.7 µM]	0
CN(C)C(=O)C[C@@H]1CC[C@@H]2[C@@H](COc3ccc(NC(=O)C4CCOCC4)cc3C(=O)N2C)O1	-6[16.7 µM]	0
O=C(C[C@H]1C=C[C@@H](NC(=O)C2CCC2)[C@H](CO)O1)NCCCN1CCOCC1	-7[16.7 µM]	-16
COc1ccc(NC(=O)Nc2ccc3c(c2)C(=O)N([C@H](C)CO)C[C@@H](C)[C@@H](CN(C)Cc2ccc(Oc4ccccc4)cc2)O3)cc1	7[16.7 µM]	8
COc1ccc(S(=O)(=O)N(C)C[C@H]2Oc3ccc(NC(=O)C4CCCCC4)cc3C(=O)N([C@H](C)CO)C[C@H]2C)cc1	-26[16.7 µM]	20
C[C@@H]1CCCCO[C@@H](CN(C)C(=O)C2CCCCC2)[C@@H](C)CN([C@H](C)CO)C(=O)c2cc(NS(=O)(=O)c3ccc(F)cc3)ccc2O1	-64[16.7 µM]	-4
COc1ccc(S(=O)(=O)N(C)C[C@@H]2Oc3c(NS(=O)(=O)c4cn(C)cn4)cccc3C(=O)N([C@H](C)CO)C[C@H]2C)cc1	-62[16.7 µM]	-2
COc1ccc(NC(=O)N(C)C[C@H]2Oc3cc(-c4ccc(C)cc4)ccc3S(=O)(=O)N([C@H](C)CO)C[C@H]2C)cc1	-27[16.7 µM]	-8
C[C@@H]1CN([C@@H](C)CO)S(=O)(=O)c2ccc(C#C[C@@H](C)O)cc2O[C@@H]1CN(C)Cc1ccccn1	13[16.7 µM]	-13
COc1ccc(NC(=O)Nc2ccc3c(c2)C(=O)N([C@@H](C)CO)C[C@@H](C)[C@@H](CN(C)Cc2ccc(C(=O)O)cc2)OCCCC[C@@H](C)O3)cc1	-5[16.7 µM]	6
C[C@@H]1CN([C@H](C)CO)S(=O)(=O)c2ccc(C#C[C@@H](C)O)cc2O[C@H]1CN(C)C	-27[16.7 µM]	-11
C[C@H](CO)N1C[C@H](C)[C@H](CN(C)C(=O)CCC(F)(F)F)OCCCC[C@H](C)Oc2ccc(NS(=O)(=O)c3cn(C)cn3)cc2C1=O	-17[16.7 µM]	-13
C[C@H](CO)N1C[C@H](C)[C@H](CN(C)Cc2ccc(C(=O)Nc3ccccc3N)cc2)Oc2c(NC(=O)Nc3ccccc3)cccc2C1=O	-36[16.7 µM]	3
Cc1ccc(S(=O)(=O)Nc2ccc3c(c2)C(=O)N([C@H](C)CO)C[C@@H](C)[C@@H](CN(C)Cc2ccc(C(=O)O)cc2)OCCCC[C@H](C)O3)cc1	4[16.7 µM]	-2
Cc1noc(C)c1NC(=O)N(C)C[C@H]1Oc2ccc(NS(=O)(=O)c3ccc(Cl)cc3)cc2C(=O)N([C@@H](C)CO)C[C@H]1C	8[16.7 µM]	-8
CCNC(=O)C[C@H]1CC[C@@H](NC(=O)NC2CCCCC2)[C@@H](CO)O1	-49[16.7 µM]	-14
Cc1ccc(S(=O)(=O)Nc2ccc3c(c2)C(=O)N([C@@H](C)CO)C[C@H](C)[C@@H](CN(C)S(=O)(=O)c2c(C)noc2C)OCCCC[C@@H](C)O3)cc1	-20[16.7 µM]	0
COCC(=O)N(C)C[C@H]1Oc2cc(Br)ccc2S(=O)(=O)N([C@H](C)CO)C[C@@H]1C	-4[16.7 µM]	-14
C[C@H](CO)N1C[C@H](C)[C@H](CN(C)CC2CCCCC2)Oc2ccc(NC(=O)Nc3ccc(C(F)(F)F)cc3)cc2CC1=O	25[16.7 µM]	5

Reprinted from the part before: five entries; new compounds follow.
SMILES	Env fusion inh	UUG fidelity
Cc1noc(C)c1NC(=O)N(C)C[C@H]1Oc2ccc(NS(=O)(=O)c3ccc(Cl)cc3)cc2C(=O)N([C@@H](C)CO)C[C@H]1C	8[16.7 µM]	-8
CCNC(=O)C[C@H]1CC[C@@H](NC(=O)NC2CCCCC2)[C@@H](CO)O1	-49[16.7 µM]	-14
Cc1ccc(S(=O)(=O)Nc2ccc3c(c2)C(=O)N([C@@H](C)CO)C[C@H](C)[C@@H](CN(C)S(=O)(=O)c2c(C)noc2C)OCCCC[C@@H](C)O3)cc1	-20[16.7 µM]	0
COCC(=O)N(C)C[C@H]1Oc2cc(Br)ccc2S(=O)(=O)N([C@H](C)CO)C[C@@H]1C	-4[16.7 µM]	-14
C[C@H](CO)N1C[C@H](C)[C@H](CN(C)CC2CCCCC2)Oc2ccc(NC(=O)Nc3ccc(C(F)(F)F)cc3)cc2CC1=O	25[16.7 µM]	5
C[C@H](O)C#Cc1cnc2c(c1)C(=O)N([C@@H](C)CO)C[C@H](C)[C@@H](CN(C)CC1CCCCC1)O2	-26[16.7 µM]	12
Cc1noc(C)c1NC(=O)N(C)C[C@@H]1OCCCC[C@@H](C)Oc2ccc(NC(=O)Cc3ccccc3)cc2C(=O)N([C@H](C)CO)C[C@@H]1C	-2[16.7 µM]	-11
C[C@H]1CN([C@@H](C)CO)C(=O)c2cc(C#CC3(O)CCCC3)cnc2O[C@H]1CN(C)S(=O)(=O)c1ccccc1	20[16.7 µM]	5
C[C@@H]1CN([C@H](C)CO)C(=O)c2cc(NS(C)(=O)=O)ccc2O[C@@H](C)CCCCO[C@@H]1CN(C)S(=O)(=O)c1ccccc1	9[16.7 µM]	14
C[C@@H]1CN([C@@H](C)CO)C(=O)c2cc(C#CC3(O)CCCC3)cnc2O[C@H]1CN(C)S(C)(=O)=O	-5[16.7 µM]	-14
O=C(C[C@H]1CC[C@@H](NS(=O)(=O)c2ccc(F)cc2)[C@@H](CO)O1)NCc1ccncn1	-18[16.7 µM]	0
O=C(Nc1ccc2c(c1)[C@H]1C[C@H](CC(=O)N3CCc4ccccc4C3)O[C@H](CO)[C@H]1O2)Nc1ccccc1F	15[16.7 µM]	-6
COc1ccc(NC(=O)Nc2ccc3c(c2)C(=O)N([C@@H](C)CO)C[C@@H](C)[C@@H](CN(C)S(=O)(=O)c2ccc(F)cc2)OCCCC[C@H](C)O3)cc1	10[16.7 µM]	-8
C[C@@H](NC(=O)C[C@H]1C[C@@H]2c3cc(NC(=O)CN(C)C)ccc3O[C@@H]2[C@@H](CO)O1)c1ccccc1	-7[16.7 µM]	-2
C[C@@H]1CN([C@@H](C)CO)C(=O)Cc2cc(NC(=O)Nc3ccccc3)ccc2O[C@@H]1CN(C)C(=O)Nc1ccc(C(F)(F)F)cc1	14[16.7 µM]	2
C[C@@H]1CN([C@@H](C)CO)C(=O)c2cc(NC(=O)C3CC3)ccc2O[C@@H]1CN(C)C(=O)Nc1cccc2ccccc12	26[16.7 µM]	-5
O=C(Nc1ccc2c(c1)[C@H]1C[C@@H](CC(=O)N3CCCCC3)O[C@@H](CO)[C@H]1O2)c1ccc2c(c1)OCO2	-15[16.7 µM]	-3
C/C=C/c1cnc2c(c1)C(=O)N([C@@H](C)CO)C[C@@H](C)[C@H](CN(C)C(=O)NCCC)O2	-25[16.7 µM]	3
C[C@H](NC(=O)C[C@H]1CC[C@H](NC(=O)C2CCC2)[C@H](CO)O1)c1ccccc1	-14[16.7 µM]	-2
O=C(N[C@H]1CC[C@@H](CC(=O)N2CCc3ccccc3C2)O[C@@H]1CO)C1CCOCC1	11[16.7 µM]	-11
CO[C@@H]1CN(C)C(=O)c2ccc(NC(=O)Cc3ccccc3)cc2OC[C@@H](C)N(CCc2ccccc2)C[C@H]1C	-31[16.7 µM]	3
C[C@@H]1CN([C@H](C)CO)C(=O)Cc2cc(NS(=O)(=O)c3cn(C)cn3)ccc2O[C@H]1CN(C)CC1CC1	-9[16.7 µM]	-8
CCC(=O)N(C)C[C@@H]1Oc2cc(-c3ccc(OC)cc3)ccc2S(=O)(=O)N([C@H](C)CO)C[C@@H]1C	3[16.7 µM]	17

This is a subset. The share of hits here may be higher or lower than overall.
